VACV Venus inh: inhibitors of vaccinia virus (Venus reporter). Vaccinia virus Venus reporter expression, fluorescence. Potency, µM (doses to about 36.5 µM), for the others: top-dose activity change, negative = inhibition, usual class: inhibitors. hit rate 0.46% among 330,000. AID 720580; active means well fitted inhibition curve with a large enough effect; inconclusive means small, poorly fitted or top-dose-only effect; inactive means no such curve, though single readings can be large or run the other way; tested in A549 cells; further: nearly all actives have a fitted effect of over 30% in size; inactives centre near -10
VACV mCherry inh: vaccinia inhibition (mCherry reporter); Vaccinia virus mCherry reporter infection, fluorescence; about a quarter of the inactives have no number; AID 720579; Potency, µM (series often up to 36.5 µM), for the others: at the top dose activity change, negative = inhibition, hits mostly inhibitors; hit rate 0.63% among 310,000; active = well fitted inhibition curve with a large enough effect; inconclusive = small, poorly fitted or top-dose-only effect; inactive = no such curve, though single readings can be large or run the other way; tested in A549 cells; further: nearly all actives have a fitted effect of over 35% in size; inactives centre near -10
* marks the source's active call; other numbers are inactive results; i = inactive; ? = inconclusive; . = no result given; & = joins results of further samples; [ ] = remark or other dose. On the % scale 0 is the no-effect control and ±100 the full control effect; potency means the concentration at half of the fitted maximal effect.

SMILES	VACV Venus inh	VACV mCherry inh
CCOC(=O)C1CCCN(c2c(C(=O)c3ccc(C)cc3)cnc3ccc(OCC)cc23)C1 (configuration not stated)	-19%	-19%
C=CCNc1nc(C(=O)OCC(=O)c2ccc(C)c([N+](=O)[O-])c2)cs1	-5%	-11%
Fc1ccc2nc(N3CCOCC3)sc2c1	-6%	i
COc1ccc(-c2ccc3c(c2)c(Sc2ccccc2)c(-c2ccccc2)n3C)cc1	-4%	-6%
COc1ccccc1OCC(=O)NCC1CCCN(C(=O)c2ccccc2SC)C1 (configuration not stated)	10%[7.34 µM]	i[7.34 µM]
CC(C)(C)C(=O)Nc1cccc(-c2cc(-c3c(Cl)cccc3Cl)no2)c1	-3%	13%
S=C(NCCCN(Cc1ccc(Cl)cc1)c1ccc(-c2ccccc2)cn1)NCCCN(Cc1ccc(Cl)cc1)c1ccc(-c2ccccc2)cn1	-15%	-2%
COC(=O)CC1C(=O)NCCN1C(=O)c1ccc(Cl)cc1 (configuration not stated)	-1%	-2%
O=C(CN1CCCC1)Nc1ccc(NC(=O)Nc2ccccc2Cl)cc1	-23%	.
COc1ccc2[nH]c3c(=O)n(CCc4ccccc4)cnc3c2c1	-4%	7%
COc1ccc(C(=O)N/N=C(/C)c2ccc(N3CCCCC3)cc2)cc1	5%	-9%
COc1ccc(CNC(=O)Cn2c(=O)nc(-c3ccccc3F)c3cc(Cl)ccc32)cc1	?	?
Cc1[nH]c2ccc(F)cc2c1CCNC(=O)c1cc2cc(Cl)ccc2oc1=O	-4%	-12%
CCCCCCCCCCCCOC(=O)C[N+](C)(C)C	-4%	i
O=C(Nc1ccc(Cl)cc1)NC1CCCc2ccccc21 (configuration not stated)	?	.
CCc1c(C)sc2c1CCN(Cc1cccc(F)c1)C2c1ccccc1 (configuration not stated)	-10%	-25%
COc1ccc(N2CCCC2)c(NC(=O)c2ccc(Br)o2)c1	-11%	?
c1cnc(N2CCN(c3cnccn3)CC2)nc1	0%	-1%
COc1cccc(C(=O)Nc2ccccc2-c2ccccc2)c1	-2%	i
Cc1ccc(OCC(=O)N(Cc2ccc(Cl)cc2)Cc2ccco2)cc1C	-6%	-4%

Entries listed so far with four or more nitrogen atoms (three):
SMILES	VACV Venus inh	VACV mCherry inh
S=C(NCCCN(Cc1ccc(Cl)cc1)c1ccc(-c2ccccc2)cn1)NCCCN(Cc1ccc(Cl)cc1)c1ccc(-c2ccccc2)cn1	-15%	-2%
O=C(CN1CCCC1)Nc1ccc(NC(=O)Nc2ccccc2Cl)cc1	-23%	.
c1cnc(N2CCN(c3cnccn3)CC2)nc1	0%	-1%

(further entries)
SMILES	VACV Venus inh	VACV mCherry inh
Cc1ccccc1NC(=O)CSc1nnc(Cc2ccccc2)c(=O)n1N	-12%	i
Cc1ccc(S(=O)(=O)N2CCCCC2)cc1NC(=O)Cn1c(=O)cnc2ccccc21	-11%	i
Cc1cc(NC(=S)N(CCCN2CCN(C)CC2)Cc2ccco2)ccc1Cl	-12%	-16%
NC(COCc1ccccc1)c1csc(Nc2cc(NCCCO)ncn2)n1 (configuration not stated)	18%	6%
Cc1nn(C)c(Cl)c1CN1CCC(CO)(CC2CCCCO2)CC1 (configuration not stated)	-8%	-8%
O=C(COC(=O)c1ccccc1)NCC1CCCO1 (configuration not stated)	-23%	-15%[1.46 µM]
CCOC(=O)C1(Cc2ccccc2)CCN(Cc2ccc(COC)o2)CC1	-11%	-6%
COC(=O)C1=C(COc2ccc(F)cc2)NC(=O)NC1c1ccc(C)cc1C (configuration not stated)	-17%	i
COc1ccc(OC)c(-n2c(C)cc(/C=C3\C(=N)N4N=C(CC(=O)N5CCOCC5)SC4=NC3=O)c2C)c1	25%[7.34 µM]	14%[7.34 µM]
CCc1ccccc1-n1ncc(C(=O)Nc2ccc(OC)cc2)c1C	-14%	i
COc1cc(OC)c(CN2CCCN(C)CC2)cc1Br	2%	-6%
COc1ccccc1CNS(=O)(=O)c1cnc(N)nc1	-8%	-9%
CC(=O)c1ccc(N2CCN(c3ccc(S(=O)(=O)N4CCN(C)CC4)cn3)CC2)cc1	2%	.
COc1cccc(C2=CC(c3cc(Br)ccc3F)n3nnnc3N2)c1 (configuration not stated)	?	?
COC(=O)CC1C(C)(C)C(OC(C)=O)C2CC3=C4CC(=O)OC(c5ccoc5)[C@]4(C)CCC3[C@@]1(C)C2=O (some centres not stated)	-11%	-22%
O=C(Nc1ccccc1-c1ccccc1)NC1CC2CCCC(C1)N2CCc1ccccc1 (configuration not stated)	-3%	i
N#CC(Cc1ccccc1)(Cc1ccccc1)C(=O)NN	-5%	i
Cc1ccc(-c2csc(CC(N)=O)n2)cc1	0%	i
O=C(Nc1nc2ccccc2s1)c1ccc2sc([C@H]3C[C@H](O)[C@@H](CO)O3)nc2c1	-14%	i
COc1ccc(OC)c(CNc2c(C=O)c(=O)[nH]c3ccccc23)c1	-5%	i
Cc1cc(F)ccc1S(=O)(=O)Nc1cc2c(C(=O)O)c(C)oc2c2ccccc12	0%	-2%
Cc1cccc(N2CCN(C(=O)c3cnn(-c4ccc(F)cc4F)c3C3CCN(C(=O)OC(C)(C)C)CC3)CC2)c1C	-25%	?
CCc1cccc(NS(=O)(=O)c2ccc3c(c2)N(CC(=O)OC)C(=O)CS3)c1	-9%	-8%
NS(=O)(=O)OCCCc1ccccc1	-3%	i
CCOc1ccc(Cl)cc1S(=O)(=O)N1CCC(C(=O)NCc2ccccn2)CC1	-3%	-2%
Cc1cc(NC(=O)CSc2nnc(COc3ccccc3)n2Cc2ccco2)no1	-8%	-15%
O=Cc1c(NCCc2cccc(F)c2)c2ccccc2[nH]c1=O	1%	i
Oc1c(C(c2cccs2)N2CCN(c3ccc(F)cc3)CC2)sc2ncnn12 (configuration not stated)	-2%	i
CSc1ccc(CCNS(=O)(=O)c2c(C)[nH]c(C)c2C(=O)N2CCCCC2)cc1	-5%	-18%
COCCSc1ccccc1C(=O)Nc1ccc2c(c1)OCCO2	-17%	-14%
COc1ccc(NC(=O)C2c3ccccc3OCC(=O)N2C2CC2)cc1 (configuration not stated)	17%	35%[activator]
Cc1cc(NC(=O)c2cccc(Cl)c2)n[nH]1	-14%	i
O=C(NCc1ccco1)C1CCN(S(=O)(=O)Cc2ccccc2)CC1	-3%	i
COc1ccc2[nH]c3c(c2c1)CCN1C(=O)C(CC(=O)NCCC2=CCCCC2)C[C@H](C(=O)N2CCCCC2)[C@@]31C (some centres not stated)	?	10µM*
Nc1[nH]n2c(=O)c3c(nc2c1N=Nc1ccccc1)CCCC3	?	.
Cc1ccc(NCCCn2cnc3c(OCc4ccccc4)ncnc32)cc1C	-18%	?
COCCNc1nc(C)c(C(C)=O)s1	-4%	-17%
O=C(O)C(Cl)(Cl)Cl	-12%	-19%
N#Cc1ccc(Cl)cc1NC(=O)COC(=O)[C@H](CCC(N)=O)NC(=O)c1ccc(F)cc1	-20%	-13%
Cc1ccc(CNC(=O)CCNS(=O)(=O)c2ccc3c(c2)oc(=O)n3C)cc1	-9%	-11%
O=C(COC(=O)C1=NN(c2ccccc2)C(=O)CC1)NCc1ccccc1Cl	-14%	i
CC1CCCN(C(=O)c2ccc(COc3ccccc3Br)cc2)C1 (configuration not stated)	-17%	.
CNc1c([N+](=O)[O-])cnn1-c1cccc(Cl)n1	-6%	i
CCN(C(=O)COC(=O)/C=C/c1ccc(C)o1)c1c(N)n(Cc2ccccc2)c(=O)[nH]c1=O	-10%	-20%
COc1ccccc1-n1c(SCC(N)=O)nc2sc3c(c2c1=O)CCC3	-4%	3%
O=S1(=O)CCO[C@H]2Cc3ccccc3[C@H]2N1Cc1ccccc1F	-9%&-12%	?
COc1ccc(N=Cc2sc3ccccc3c2Cl)cc1	-17%	-15%
Cc1ccccc1Cn1nnc(C(=O)Nc2ccc3c(c2)OCCO3)c1N	-21%	-36%
S=c1[nH]nc(-c2cccnc2)n1/N=C/C=C/c1ccccc1	-19%	i
O=C(O)CCCCCN1C(=O)/C(=C\c2ccncc2)SC1=S	-15%	?

The results go on.
SMILES	VACV Venus inh	VACV mCherry inh
COc1cccc(Nc2c3c(nc4c(-c5ccccc5)c(C)nn24)CCC3)c1	-23%	-6%
COc1cccc(NC(=O)Nc2nnc([C@H]3C[C@H](O)[C@@H](CO)O3)s2)c1	0%	4%
COc1ccc(OC)c(NC(=O)COC(=O)/C=C/c2ccccc2Cl)c1	-10%	-6%
COc1ccc(C2OCC3(CO2)SC(=O)NC3=O)cc1 (configuration not stated)	-3%	i
CCN(CC)c1cc(C)c2cc(NC(=O)c3cc(OC)cc(OC)c3)ccc2n1	-17%	-21%
Cc1ccc(NC(=O)CN(C)CC(=O)Nc2cccc(F)c2)cc1[N+](=O)[O-]	-23%	?
CS(=O)(=O)N(CC(=O)N1CCN(Cc2ccccc2)CC1)Cc1ccccc1	-8%	-4%
COCCNC(=O)C1(C)CCCN(C(=O)Cc2ccc3ccccc3c2)C1 (configuration not stated)	2%	0%
c1coc(CN2Cc3ccccc3-n3nncc3C2)c1	-6%	i
CCSc1ncc(Cl)c(C(=O)Nc2ccc(S(=O)(=O)N3CCCCC3CC)cc2)n1 (configuration not stated)	-23%	-23%
COc1cccc(CN(C(=O)COc2ccc(Cl)cc2)C2CCS(=O)(=O)C2)c1 (configuration not stated)	-11%	-14%
O=C(NC1(C(=O)O)CCCC1)C(Cl)Cl	-4%	i
O=C(NCc1cccc(F)c1)c1[nH]c(C(F)(F)F)nc1-c1ccccc1	-6%	-12%
CCn1cc(S(=O)(=O)c2ccc(C)cc2C)c(=O)c2cc(F)c(N3CCCC3)cc21	-18%	-23%
COc1ccc(Cn2c(=O)[nH]c3cc(C(=O)NCCc4ccc(S(N)(=O)=O)cc4)ccc3c2=O)cc1	-5%	i
O=C1CCCc2cc(S(=O)(=O)NCC3CCC(C(=O)Nc4ccccc4F)CC3)ccc2N1 (configuration not stated)	-6%	-11%
CC1(C)CNc2cc(N)ccc2S1	59%[activator]	-15%
CC(=O)OCc1c(C)cc(C)c(/C=C(/C#N)C(N)=O)c1C	-2%	1%
O=S(=O)(c1ccc(Br)cc1)N1CCn2c(nc3ccccc32)C1	-15%	-15%
COc1ccccc1Nc1c2c(nc3ccc(NC(=O)c4ccc(OC)c(OC)c4)cc13)CCCC2	-26%	-16%
COc1ccc2c(OC)cc(-c3ccccc3)nc2c1	-15%	-2%
Cn1nc(C(=O)Nc2ccccc2C#N)c2c1-c1ccccc1SC2	-9%	-10%
Cc1cc(C)c(NC(=O)Cn2nnc(C(=O)NCc3cccs3)c2N)c(C)c1	3%	2%
CC(C)n1ncc2c(C(=O)NCCOc3ccccc3F)cc(C3CC3)nc21	-13%	-8%
O=C(c1ccc(CS(=O)Cc2ccc(Cl)cc2)o1)N1CCN(c2ccccc2)CC1 (configuration not stated)	-4%	-30%
Cc1ccc(S(=O)(=O)N2C[C@@H]3[C@H]4CC[C@H](C4)[C@@H]3[C@@H](C)[C@H]2c2ccn(Cc3ccccc3)c2)cc1	?	?
Cn1nc(OC(=O)Nc2ccc(F)cc2)cc1C(F)(F)F	-18%	i
Cc1cnc(NC(=O)CN2CCN(c3ccccc3F)CC2)s1	-25%	.
COc1ccc(CN2CCN(CC=C(C)C)C(CCO)C2)cc1Cn1cccn1 (configuration not stated)	-5%	i
COc1ccc(S(=O)(=O)NC2(C(F)(F)F)N=C3SCCN3C2=O)cc1 (configuration not stated)	-8%	-13%
CCCS(=O)(=O)N1CCC(C(=O)NCCN2CCC(Cc3ccccc3)CC2)CC1	-6%	-16%[1.46 µM]
Cc1ccc(C(=O)NCCCNC(=O)c2ccccc2F)cn1	-19%	9%
CCC(=O)N1CCc2cc(Br)cc(S(=O)(=O)CCC(=O)NCc3ccc(F)cc3)c21	-7%	-5%
Cc1nc2cc(NC(=O)[C@@H]3C[C@@H](Sc4ccccn4)CN3Cc3ccccc3F)ccc2s1	-19%	-21%
COc1ccc(OC)c(C(=O)CSc2nnc(-c3cccs3)n2C)c1	-10%	.
CCN(CC(=O)NCc1cccs1)C(=O)c1cccc(S(=O)(=O)N(C)C)c1	-9%	i
Cc1ccc(CCC(=O)Nc2ccc(CC(=O)O)cc2)o1	-9%	-11%
O=C(Nc1cc(C(F)(F)F)ccc1N1CCOCC1)c1ccc(Cl)nc1	-24%	.
COc1ccc(NC(=O)Nc2c[nH]c(=O)[nH]c2=O)cc1OC	-1%	i
Cc1ccc(C(=O)CSc2nc(C)cc(C)c2C(=O)Nc2cccc(C)c2)cc1	-14%	-10%

Entries above with a CF3 group:
SMILES	VACV Venus inh	VACV mCherry inh
O=C(NCc1cccc(F)c1)c1[nH]c(C(F)(F)F)nc1-c1ccccc1	-6%	-12%
Cn1nc(OC(=O)Nc2ccc(F)cc2)cc1C(F)(F)F	-18%	i
COc1ccc(S(=O)(=O)NC2(C(F)(F)F)N=C3SCCN3C2=O)cc1 (configuration not stated)	-8%	-13%
O=C(Nc1cc(C(F)(F)F)ccc1N1CCOCC1)c1ccc(Cl)nc1	-24%	.

Full records as entered above. Order of values: VACV Venus inh | VACV mCherry inh
`Cc1ccc(C(=O)NCCCNC(=O)c2ccccc2F)cn1` across the screens: -19% | 9%
`O=C(Nc1cc(C(F)(F)F)ccc1N1CCOCC1)c1ccc(Cl)nc1` across the screens: -24% | .

Remaining list, next part.
SMILES	VACV Venus inh	VACV mCherry inh
Cc1ccc2[nH]c(=O)c3cc(C(=O)NC(C)C)sc3c2c1	-11%	-4%
CCCc1c(NC(=O)Nc2ccc(F)cc2)cnn1-c1ccc(Cl)cc1	?	-15%
CN(C)c1nc(N(C)C)nc(N2CC(=O)N(c3ccccc3)C2=N)n1	-28%	-1%
CCOCCCNc1nc2c(C)cccn2c(=O)c1/C=C1\SC(=S)N(C(C)CC)C1=O (configuration not stated)	36%[activator]	-13%
CCn1ncc(S(=O)(=O)NCc2ccccc2Cl)c1C	-12%	i
